AF4-AF9 inh: inhibitors of human MLL-AF4/AF9 interaction; AlphaScreen, biotin-AF4 peptide binding to FLAG-AF9; 350,000 tested, 0.47% active; inhibition, % at 10 µM;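 active = every replicate reaching a set inhibition limit, whatever the replicate mean, cut at about 25% in these data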;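 note: 0% = plate neutral control median and 100% = total signal loss; the record names both 10 and 1 µM as test concentration; the first replicate is given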
Target sequence (P42568 whole entry, looked up): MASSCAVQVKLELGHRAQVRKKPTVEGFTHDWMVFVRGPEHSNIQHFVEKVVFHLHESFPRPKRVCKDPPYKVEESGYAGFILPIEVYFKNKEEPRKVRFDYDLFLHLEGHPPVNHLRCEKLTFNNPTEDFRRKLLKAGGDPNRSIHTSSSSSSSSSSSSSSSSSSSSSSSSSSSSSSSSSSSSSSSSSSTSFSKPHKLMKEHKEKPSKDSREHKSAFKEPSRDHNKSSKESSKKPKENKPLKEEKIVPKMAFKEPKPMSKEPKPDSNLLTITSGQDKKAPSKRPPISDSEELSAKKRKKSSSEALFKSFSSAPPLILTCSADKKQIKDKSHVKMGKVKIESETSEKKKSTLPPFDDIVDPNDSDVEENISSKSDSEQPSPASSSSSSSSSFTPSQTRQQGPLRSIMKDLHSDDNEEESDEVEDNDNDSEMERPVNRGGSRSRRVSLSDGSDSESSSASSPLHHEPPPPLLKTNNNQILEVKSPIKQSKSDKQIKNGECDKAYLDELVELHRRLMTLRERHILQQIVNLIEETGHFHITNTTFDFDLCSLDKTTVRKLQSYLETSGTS
Ecoli rRNA inh: inhibits bacterial ribosomal RNA function over humanized ribosomes; E. coli WT GFP vs humanized-ribosome RFP mutants, fluorescence, 24 h; hits give low values; DMSO median 0, no signal -100; GFP signal change (wild-type ribosome), % (no concentration beside the values); 350,000 tested, 1.6% active;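 active = significant combined selectivity score with lowered wild-type GFP, culture density cut under 30%, mutant RFP and density less affected; inactive = any of these conditions unmet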; note: one replicate is shown; some compounds called inactive have numbers as strong as hits
FGF22 binding: binders of recombinant human FGF22 by thermal shift; Q9HCT0; 340,000 tested, 1.5% active; SYPRO orange fluorescence; percent of sucrose octasulfate shift, DMSO zero; calls only at 9.99 µM;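 active = melting point raised past a set limit in the mean and every replicate; three in four hits are not shown here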
Target sequence (Q9HCT0 whole entry, looked up): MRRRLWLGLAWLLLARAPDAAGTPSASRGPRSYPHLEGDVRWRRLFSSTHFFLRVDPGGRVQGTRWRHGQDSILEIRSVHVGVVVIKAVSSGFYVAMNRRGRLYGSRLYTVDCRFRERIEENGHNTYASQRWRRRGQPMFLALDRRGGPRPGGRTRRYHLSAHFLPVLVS
Ecoli rRNA inh OD600: recorded beside Ecoli rRNA inh, whose call it bears; OD600 change, %; measured here: OD600 growth;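 optical density of the mix in the first replicate; 0 = DMSO median and -100 = no signal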
Ecoli rRNA inh RFP: recorded beside Ecoli rRNA inh, whose call it bears; RFP signal change, %; measured here: RFP humanized mutant strains;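 first replicate; 0 = DMSO median and -100 = no signal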
Numbers without * were called inactive; i = inactive. Not all compounds are listed; rates above refer to the full screens.

Each structure is followed by: AF4-AF9 inh | Ecoli rRNA inh | Ecoli rRNA inh OD600 | Ecoli rRNA inh RFP | FGF22 binding
> O=C(NCc1cccnc1)c1cc(C2CCCCN2S(=O)(=O)c2ccccc2)on1 (centres undefined)
  4.0 | 1 | -2 | 3.9 | i
> C[C@H](CO)N1C[C@H](C)[C@@H](CN(C)CC2CCOCC2)Oc2cc(C3=CCCC3)ccc2S1(=O)=O
  6.1 | -1 | -19 | 2.2 | i
> CC12CCC3C(=CCc4cc(O)ccc43)C1CC(=NO)C2O (centres undefined)
  0.4 | -3 | -5 | 1.0 | i
> COc1ccc(-c2cc(=O)c3c(O)c(OC)c(OC)c(OC)c3o2)cc1
  -10.0 | 18 | 13 | 2.7 | i
> COc1ccc(S(=O)(=O)N2CC[C@@H]3[C@H]2c2cc(C#Cc4ccccc4OC)ccc2N[C@@H]3CO)cc1
  0.8 | 2 | 17 | -7.2 | i
> Cc1ccc(C2CC(=O)Oc3cc(C)cc(C)c32)cc1 (centres undefined)
  -1.4 | -47 | -68 | -7.1 | i
> O=C(Nc1ccc(F)cc1)N[C@@H]1CC[C@@H](CC(=O)N2CCCCC2)O[C@@H]1CO
  -9.2 | 1 | -3 | 1.8 | i
> CC(C)NC(=O)N(C)C[C@@H]1Oc2ccc(NS(=O)(=O)c3ccc(Cl)cc3)cc2C(=O)N([C@H](C)CO)C[C@@H]1C
  -1.0 | 2 | -3 | 1.7 | i
> CCCNC(=O)N[C@H]1CC[C@@H](CC(=O)NCCc2ccccc2)O[C@H]1CO
  -1.7 | 3 | 0 | -1.1 | i
> COc1ccc(S(=O)(=O)N(C)C[C@@H]2OCc3ccccc3-c3ccccc3C(=O)N([C@H](C)CO)C[C@H]2C)cc1
  8.6 | -3 | -4 | 6.2 | i
> O=C(O)c1ccc(Cl)cc1NC(=O)C1CCN(S(=O)(=O)c2cccs2)CC1
  -1.2 | -18* | -27* | 1.8* | i
> O=C(C[C@H]1C=C[C@@H](NC(=O)Nc2ccc3c(c2)OCO3)[C@H](CO)O1)NCc1ccc2c(c1)OCO2
  2.1 | 2 | 8 | -0.6 | i
> C[C@@H]1CN([C@@H](C)CO)C(=O)c2cc(C3=CCCC3)cnc2O[C@H]1CN(C)C(=O)CN(C)C
  -0.8 | 2 | -1 | -0.5 | i
> CCCC#Cc1ccc([C@@H]2[C@H](C#N)N(C(=O)C3CCC3)[C@H]2CO)cc1
  1.0 | -1 | 1 | 0.1 | i
> CS(=O)(=O)N1[C@H](C(=O)O)[C@@H](CO)[C@@H]2Cn3c(ccc(-c4ccc(F)cc4)c3=O)[C@@H]21
  1.2 | 3 | 6 | -0.7 | i
> COc1ccccc1-c1ccc2c(c1)C(C)(Cc1cccc(C#N)c1)C(=O)N2 (centres undefined)
  1.0 | -34 | -62 | 19 | i
> C[C@H](CO)N1C[C@H](C)[C@H](CN(C)Cc2ccccn2)Oc2cc(-c3ccccc3)ccc2S1(=O)=O
  3.1 | -40 | -58 | -1.3 | i
> C[C@H]1CN([C@@H](C)CO)C(=O)Cc2cc(NC(=O)c3ccncc3)ccc2O[C@H]1CN(C)C(=O)NC1CCCCC1
  -4.6 | 3 | 4 | 0.0 | i
> O=C(C1CC1)N1CC2(C1)[C@H](c1ccccc1)[C@H](CO)N2Cc1ccccc1F
  0.2 | -6 | -14 | -2.0 | i
> CCCC#Cc1ccc([C@@H]2[C@@H](C#N)N(C(=O)C3CCOCC3)[C@H]2CO)cc1
  -1.3 | 0 | 1 | 4.9 | i
> CN1c2ccc(-c3ccccc3)cc2[C@@H]2[C@@H](CCN2S(=O)(=O)c2ccccc2F)[C@H]1CO
  -2.0 | -5 | 5 | 5.2 | i
> O=C(CN1CCOCC1)N1CCCCN2[C@H](CO)[C@H](c3ccc(C#Cc4ccccc4F)cc3)[C@@H]2C1
  -1.2 | 5 | 1 | 15 | i
> C[C@H](CO)N1C[C@H](C)[C@H](CN(C)C(=O)c2ccccc2F)Oc2ncc(-c3cccnc3)cc2C1=O
  -1.3 | 4 | 6 | -5.3 | i
> O=C(NC(Cc1ccccc1)C(=O)N1CCN(c2ccc(F)cc2)CC1)c1ccccc1 (centres undefined)
  3.9 | 1 | -10 | 9.2 | i
> O=C(C1CC1)N1CCCCN2[C@H](CO)[C@@H](c3ccc(C#CC4CCCC4)cc3)[C@H]2C1
  17 | -59 | -77 | -13 | i
> COc1ccc(CCN2C(=O)CCC2(C)c2nnnn2-c2c(C)cccc2C)cc1OC (centres undefined)
  -2.2 | 0 | -5 | 1.1 | i
> COC(=O)C1C(OC)=CC(=O)C2CCCCC21 (centres undefined)
  -12 | 24 | 9 | 1.3 | i
> CC(=O)N(C)C[C@@H]1Oc2cc(C#CC(C)C)ccc2S(=O)(=O)N([C@@H](C)CO)C[C@@H]1C
  -1.8 | -4 | 14 | -2.6 | i
> CC(C)NC(=O)N(C)C[C@H]1OCCCC[C@H](C)Oc2ccc(NS(C)(=O)=O)cc2C(=O)N([C@@H](C)CO)C[C@@H]1C
  -2.5 | 0 | 10 | -2.6 | i
> COc1ccc(NC(=O)Nc2ccc3c(c2)C(=O)N([C@H](C)CO)C[C@H](C)[C@H](CN(C)Cc2ccc(C(=O)O)cc2)O3)cc1
  -3.0 | 0 | 10 | -0.3 | i
> O=C(C[C@H]1CC[C@H](NC(=O)C2CC2)[C@H](CO)O1)NCc1ccccc1Cl
  1.4 | 3 | -2 | 1.3 | i
> O=C(CC[C@H]1O[C@@H](n2cnc3c(NC(=O)c4ccccc4)ncnc32)[C@H](O)[C@@H]1O)NCc1ccccn1
  1.1 | 21 | 11 | 4.1 | i
> C[C@H](CO)N1C[C@H](C)[C@@H](CN(C)Cc2ccccc2)Oc2ncc(-c3cncnc3)cc2C1=O
  -3.3 | 6 | 6 | -3.7 | i
> C[C@@H]1CN([C@@H](C)CO)C(=O)Cc2cc(NC(=O)C3CC3)ccc2O[C@@H]1CN(C)C(=O)Nc1ccc(C(F)(F)F)cc1
  0.1 | 0 | 4 | -0.3 | i
> O=C(C[C@@H]1CC[C@H](NS(=O)(=O)c2ccc(F)cc2)[C@H](CO)O1)N1CCC(Cc2ccccc2)CC1
  -3.9 | -3 | -6 | -0.2 | i
> COc1ccc(CN(C)C[C@H]2OCCCC[C@H](C)Oc3ccc(NS(=O)(=O)c4cn(C)cn4)cc3C(=O)N([C@H](C)CO)C[C@H]2C)cc1
  -4.7 | 6 | 14 | 1.1 | i
> O=C(C[C@@H]1C[C@H]2c3cc(NC(=O)CC4CC4)ccc3O[C@H]2[C@@H](CO)O1)NCc1ccc(Cl)cc1
  -1.7 | 2 | -5 | -4.9 | i
> C[C@@H]1CN([C@@H](C)CO)C(=O)Cc2cc(NC(=O)Nc3ccccc3)ccc2O[C@@H]1CN(C)C(=O)Nc1ccc2c(c1)OCO2
  -0.4 | 2 | 1 | -0.3 | i
> Cc1ccc(S(=O)(=O)N(C)C[C@@H]2Oc3c(NS(=O)(=O)c4cn(C)cn4)cccc3C(=O)N([C@H](C)CO)C[C@@H]2C)cc1
  -2.8 | 0 | 5 | 0.2 | i
> C[C@@H]1CN([C@H](C)CO)C(=O)Cc2cc(NS(=O)(=O)c3ccc(Cl)cc3)ccc2O[C@H]1CN(C)S(=O)(=O)c1ccc(Cl)cc1
  1.9 | -12 | -11 | 4.7 | i
> COCC(=O)N(C)C[C@H]1Oc2ncc(-c3ccccc3OC)cc2C(=O)N([C@H](C)CO)C[C@@H]1C
  -13 | -1 | 6 | 1.6 | i
> C[C@@H]1CN([C@@H](C)CO)C(=O)c2ccccc2-c2ccccc2CO[C@@H]1CN(C)C(=O)Nc1ccccc1
  -3.7 | 3 | 9 | -5.1 | i
> Cc1ccccc1Cn1c(C)c(C(=O)N(C)Cc2ccc(F)cc2)sc1=O
  -6.5 | -25 | -33 | -17 | i
> C[C@H](CO)N1C[C@H](C)[C@H](CN(C)CC2CCCCC2)OCCCC[C@H](C)Oc2ccc(NS(=O)(=O)c3cccs3)cc2C1=O
  -6.8 | 0 | -15 | 13 | i
> O=C(CCN1CCCCC1)N[C@H]1C=C[C@H](CC(=O)N2CCC(Cc3ccccc3)CC2)O[C@@H]1CO
  2.6 | -6 | 4 | 1.9 | i
> Cn1nc(C2CC2)cc1NC(=O)C1(C)CCN1C(=O)c1ccccc1CCc1ccccc1 (centres undefined)
  0.3 | -21 | -51 | -5.6 | i
> CCCN1C[C@@H](C)[C@@H](OC)CN(C)C(=O)c2ccc(NC(=O)c3cccc(OC)c3)cc2OC[C@H]1C
  -2.4 | 0 | 0 | 1.8 | i
> CO[C@H]1CN(C)C(=O)c2cc(NC(=O)C3CCOCC3)ccc2OC[C@H](C)N(C(C)=O)C[C@@H]1C
  0.3 | 3 | 4 | -2.0 | i
> CO[C@@H]1CN(C)C(=O)c2cc(NC(=O)c3cccc(F)c3)ccc2OC[C@@H](C)NC[C@H]1C
  -7.0 | 6 | 10 | -1.6 | i
> C[C@@H]1CCCCO[C@@H](CN(C)S(=O)(=O)c2cccs2)[C@@H](C)CN([C@H](C)CO)C(=O)c2cc(NS(=O)(=O)c3ccc(F)cc3)ccc2O1
  -8.6 | 4 | 3 | -0.7 | i

More compounds
Each structure is followed by: AF4-AF9 inh | Ecoli rRNA inh | Ecoli rRNA inh OD600 | Ecoli rRNA inh RFP | FGF22 binding
> CCCCn1c(N)c(N(CCC(C)C)C(=O)c2c(CC)noc2C)c(=O)[nH]c1=O
  -1.4 | 6 | 6 | -3.0 | i
> COc1ccc(NC(=O)Nc2cccc3c2O[C@H](CN(C)Cc2ccc(C(F)(F)F)cc2)[C@H](C)CN([C@@H](C)CO)C3=O)cc1
  3.9 | -19 | -21 | 2.3 | i
> CCC(=O)N[C@@H]1CC[C@H](CCNC(=O)Nc2ccc(C(F)(F)F)cc2)O[C@H]1CO
  4.7 | -56 | -81 | -18 | i
> CN(C)c1ccc2c(c1)[C@@H]1C[C@H](CC(=O)NCc3cccc(F)c3)O[C@@H](CO)[C@@H]1O2
  4.7 | 5 | 1 | -1.2 | i
> Cc1ccc(S(=O)(=O)N2C[C@H](O)COC[C@@H]3O[C@@H](CC(=O)NCc4ccc5c(c4)OCO5)CC[C@H]32)cc1
  8.6 | -6 | -1 | -3.0 | i
> CCC(=O)Nc1ccc2c(c1)C(=O)N(C)C[C@@H](OC)[C@@H](C)CN(C(=O)c1ccc(F)cc1)[C@H](C)CO2
  0.6 | -2 | 5 | -1.6 | i
> Cc1noc(C)c1NC(=O)N(C)C[C@@H]1OCCCC[C@H](C)Oc2ccc(NC(=O)Cc3ccccc3)cc2C(=O)N([C@@H](C)CO)C[C@H]1C
  -1.1 | 2 | 8 | -1.6 | i
> N#C[C@H]1[C@@H](c2ccccc2)[C@H](CO)N1C(=O)Cc1ccccc1
  -2.1 | 2 | 10 | 0.1 | i
> CS(=O)(=O)Nc1ccc2c(c1)[C@H]1C[C@@H](CC(=O)NCc3ccc(Oc4ccccc4)cc3)O[C@H](CO)[C@H]1O2
  1.4 | 1 | -21 | 2.6 | i
> C[C@@H]1CN([C@@H](C)CO)C(=O)c2cc(NC(=O)Nc3ccc(C(F)(F)F)cc3)ccc2O[C@@H](C)CCCCO[C@@H]1CN(C)Cc1ccc(C(=O)O)cc1
  -3.1 | 1 | -1 | 0.0 | i

Pulled by structure from the entries so far:
Each structure is followed by: AF4-AF9 inh | Ecoli rRNA inh | Ecoli rRNA inh OD600 | Ecoli rRNA inh RFP | FGF22 binding
> N#C[C@H]1[C@@H](c2ccccc2)[C@H](CO)N1C(=O)Cc1ccccc1
  -2.1 | 2 | 10 | 0.1 | i
> Cc1noc(C)c1NC(=O)N(C)C[C@@H]1OCCCC[C@H](C)Oc2ccc(NC(=O)Cc3ccccc3)cc2C(=O)N([C@@H](C)CO)C[C@H]1C
  -1.1 | 2 | 8 | -1.6 | i
> CCCCn1c(N)c(N(CCC(C)C)C(=O)c2c(CC)noc2C)c(=O)[nH]c1=O
  -1.4 | 6 | 6 | -3.0 | i
> C[C@@H]1CN([C@@H](C)CO)C(=O)c2cc(NC(=O)Nc3ccc(C(F)(F)F)cc3)ccc2O[C@@H](C)CCCCO[C@@H]1CN(C)Cc1ccc(C(=O)O)cc1
  -3.1 | 1 | -1 | 0.0 | i
> CS(=O)(=O)Nc1ccc2c(c1)[C@H]1C[C@@H](CC(=O)NCc3ccc(Oc4ccccc4)cc3)O[C@H](CO)[C@H]1O2
  1.4 | 1 | -21 | 2.6 | i

(listing goes on)
Each structure is followed by: AF4-AF9 inh | Ecoli rRNA inh | Ecoli rRNA inh OD600 | Ecoli rRNA inh RFP | FGF22 binding
> COc1ccc(S(=O)(=O)N(C)C[C@@H]2OCCCC[C@H](C)Oc3ccc(NC(=O)C4CCCCC4)cc3C(=O)N([C@@H](C)CO)C[C@H]2C)cc1
  -1.3 | 3 | 7 | 2.7 | i
> CCOC(=O)[C@]12CCC=C1N(Cc1ccc3c(c1)OCO3)C(=O)[C@H](CC(=O)N1CCSCC1)C2
  1.9 | -26 | -38 | -7.5 | i
> COc1ccc(NC(=O)Cc2csc(NC(=O)Nc3ccccc3OC)n2)cc1
  -0.4 | -7 | -21 | 2.1 | i
> COC(=O)C[C@@H]1CC[C@@H]2[C@@H](COc3ccc(NS(=O)(=O)c4ccc(C)cc4)cc3C(=O)N2C)O1
  1.2 | 2 | 2 | -1.8 | i

Screening results deposited in PubChem by Broad Institute.
